High-throughput results: PubChem, National Center for Advancing Translational Sciences (NCATS)
Resorufin autofl = resorufin region autofluorescence | 0.04% of 59,000 active | Compound fluorescence, resorufin region 547/598 nm, buffer; hits give high values | max dye-equivalent concentration, M; active = above 10 nM dye equivalent; inconclusive = 1 to 10 nM; inactive = 1 nM or less; a few of its hits are not listed in these tables; note: highest value over a series up to 38 µM
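Compounds in 100 mM Tris buffer, pH 8.0, incubated 15 min at room temperature, then read with 547 nm excitation and 598 nm emission filters. Fluorescence was converted to dye-equivalent concentration using an on-plate six-point resorufin standard curve.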
A488 autofl = compound fluoresces in the A488 spectral region. compound autofluorescence, A488 spectral region, dye equivalency; hits give high values. max dye equivalency, M. 0.1% of 59,000 active; active = above 10 nM dye equivalent; inconclusive = 1 to 10 nM; inactive = 1 nM or less; about half of its hits are not listed in these tables;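 note: highest value over a series up to 38 µM; compound alone in buffer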
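Autofluorescence read at ex 480/em 540 nm after 15 min RT in 100 mM Tris pH 8.0; compound signal normalized to A488 standard series on each plate, reported as dye-equivalent concentration at each test concentration.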
AID923 = qHTS Assay for Allosteric/Competitive Inhibitors of Caspase-1: Spectroscopic Profiling in AFC Spectral Region. compound fluorescence, AFC spectral region (405/520 nm); almost no hit is shown here. Potency, µM (top dose mostly 57.5 µM), for the others: at the highest dose fluorescence increase, usual class: activators. 1.1% of 75,000 active; active = well fitted activation curve with a large enough effect; inconclusive = small, poorly fitted or top-dose-only effect;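 note: potency is the fitted concentration of half-maximal effect; 0% is about no effect; scaled to a free AFC standard on each plate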
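Baseline compound fluorescence (AFC region, 405 nm ex/520 nm em) taken from the intercept of kinetic reads with 50 nM caspase-1 and 5 uM Ac-WEHD-AFC; normalized to an on-plate AFC standard curve; compounds titrated up to 57 uM.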
TSHR agonist = agonists of human thyroid stimulating hormone receptor | 0.48% of 73,000 active | HEK293-CNG-TSHR cells (CNG channel as cAMP sensor), membrane potential dye, cAMP | AID 926 | Potency, µM (top dose mostly 57.1 µM), without a hit: top-dose activation, usual class: activators | P16473; active = well fitted activation curve of enough size with the parental cells flat; inconclusive = any curve in the parental cells; inactive = parental cells flat and receptor cells flat or falling; note: potency is the fitted concentration of half-maximal effect; % of control where 0% means no effect; weak receptor curves with flat parental cells got no call and are not listed
Target sequence (P16473 whole entry, looked up): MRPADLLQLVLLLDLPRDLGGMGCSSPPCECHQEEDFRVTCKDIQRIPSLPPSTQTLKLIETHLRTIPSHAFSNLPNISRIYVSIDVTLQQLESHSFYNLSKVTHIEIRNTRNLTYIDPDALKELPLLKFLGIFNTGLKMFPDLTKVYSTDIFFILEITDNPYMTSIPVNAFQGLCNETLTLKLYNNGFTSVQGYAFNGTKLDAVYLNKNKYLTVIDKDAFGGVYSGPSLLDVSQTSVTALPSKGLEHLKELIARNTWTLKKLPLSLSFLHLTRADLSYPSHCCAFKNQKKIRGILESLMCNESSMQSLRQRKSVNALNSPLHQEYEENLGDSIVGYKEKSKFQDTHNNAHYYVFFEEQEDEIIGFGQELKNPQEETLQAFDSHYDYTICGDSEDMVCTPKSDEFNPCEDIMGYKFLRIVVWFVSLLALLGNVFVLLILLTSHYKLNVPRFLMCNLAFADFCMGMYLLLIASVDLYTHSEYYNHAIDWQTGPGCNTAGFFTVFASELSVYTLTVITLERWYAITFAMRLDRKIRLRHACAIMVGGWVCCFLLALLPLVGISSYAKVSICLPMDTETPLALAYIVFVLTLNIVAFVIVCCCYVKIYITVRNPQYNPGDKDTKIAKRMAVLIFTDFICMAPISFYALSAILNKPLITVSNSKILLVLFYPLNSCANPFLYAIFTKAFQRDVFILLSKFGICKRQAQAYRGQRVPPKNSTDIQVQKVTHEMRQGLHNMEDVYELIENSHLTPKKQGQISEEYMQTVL
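HEK 293 cells stably expressing TSHR and a modified CNG channel, with CNG-only parental cells as counterscreen, were preloaded 60 min at room temperature with membrane potential dye containing 100 uM RO 20-1724. Compound exposure was 30 min, and depolarization was read as fluorescence at 590 nm.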
A647 autofl = compound fluoresces in the A647 spectral region | max dye-equivalent concentration, M | Compound fluorescence, A647 channel (570/671 nm), Tris buffer | 59,000 tested, under 10 active | AID 592; active means above 1 µM dye equivalent; inconclusive means 0.1 to 1 µM; inactive means 0.1 µM or less;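 note: values scaled relative to a standard on each plate; highest value over a series up to 38 µM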
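Spectral profiling of library compounds in pH 8.0 Tris: 15 min room-temperature incubation, single ex/em pair (570/671 nm), response normalized to Alexa 647 equivalents.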
* hit, by the source's call; i = inactive; ? = inconclusive; . = not tested or not shown; [ ] = another dose, or the depositor's remark. The list is partial (hit frequency here may not be typical).

SMILES	Resorufin autofl	A488 autofl	AID923	TSHR agonist	A647 autofl
CCOC(=O)c1sc(NC(=O)CN2CCCC2)c(C(=O)OCC)c1C	i	i	2.8%	24.5%	2.6e-09
O=C(Cc1ccccc1F)Nc1nc(-c2cccs2)cs1	i	i	0.8%	13.5%	1e-09
c1ccc(CN2CCN(c3ncnc4c3[nH]c3ccccc34)CC2)cc1	i	i	.	.	3.72e-08
COc1ccc(NC(=O)N2CCCC3(CCN(C(=O)c4cnccn4)CC3)C2)cc1	i	i	1.3%	.	2e-09
COc1ccc(CCNC(=O)CCN2C(=O)COc3ccccc32)cc1OC	i	i	1.4%	?	1e-09
COc1ccc(C(=O)COC(=O)CN2CC(=O)Oc3ccccc32)cc1Br	i	i	2.4%	10.5%	3.92e-08
Cc1nonc1NC(=O)CSc1nc2cc(Cl)ccc2c2c1CCCC2	i	i	-1.1%	?	8e-09
CCN(CC)S(=O)(=O)c1ccc2[nH]cc(C(=O)NCCc3ccc(OC)c(OC)c3)c(=O)c2c1	i	i	-2.0%	1.5%	3.7e-09
COC(=O)[C@H](CCSC)NC(=O)N1CCN(c2cccc(C(F)(F)F)c2)CC1	i	i	-2.0%	5.6%	5.3e-09
O=c1[nH]c2c(cc1CNCCN1CCOCC1)c(-c1cccc(F)c1)nn2-c1ccccc1	i	i	0.9%	-1.3%	4.4e-08
CN(C)CCCNc1cc(O)c2c(c1O)C(=O)c1ccccc1C2=O	1.29e-08M*	i	2.9%[11.5 µM]	-23.0%[11.4 µM]	5e-09
COc1ccc(S(=O)(=O)NC(CC(=O)NCc2ccco2)C(C)C)cc1 (stereo not drawn)	.	.	1.3%	?	.
Cc1ccc(N(CC(=O)O)S(C)(=O)=O)cc1Cl	i	i	1.5%	-2.6%	2e-08
N#CN(CC(N)=O)c1nc(N2CCCCC2)nc(N2CCCCC2)n1	i	i	-1.3%	-0.3%	7.7e-09
O=C(C1CCC(=O)N1C1CCCCC1)N1CCN(c2ccc(F)cc2)CC1 (stereo not drawn)	i	i	-0.4%	-0.7%	1e-09
CCOC(=O)C1CCCN(C(=O)CC(C)c2ccccc2)C1 (stereo not drawn)	.	.	-1.8%	?	.
NC(=O)C1CCN(CC(=O)c2c[nH]c3ccc(F)cc23)CC1	i	i	0.9%	5.8%	3.72e-08
Cn1c(C(C#N)C(=O)Cc2cccc3ccccc23)nc2ccccc21 (stereo not drawn)	i	i	1.1%	6.4%	9.9e-09
COC(=O)c1ccc(OC)c(CSc2nnc(-c3ccc(C)cc3)o2)c1	i	i	0.1%	-0.2%	1.75e-08
Cc1cc(C(=O)NCc2cccnc2)n(-c2ccccc2)n1	.	.	3.3%	2.0%	.
COc1ccccc1OC(=O)C1CC(=O)N(c2ccc(Cl)cc2)C1 (stereo not drawn)	i	i	1.5%	19.4%	1.5e-09
CCOC(=O)c1c(NC(=O)Cn2nnc3ccccc32)sc2c1CCC(C)C2 (stereo not drawn)	i	i	2.2%	11.7%	6.38e-08
Cc1ccc(-n2nnnc2SCC(=O)Nc2ccc3c(c2)COC3=O)cc1C	i	i	-3.1%	0.8%	2.65e-08
Cc1nn(Cc2ccc(Cl)cc2)c(C)c1NC(=O)c1noc2c1CCCCC2	i	i	-0.5%	?	6.3e-09
O=C(O)C1CSC2c3ccccc3C(=O)N12 (stereo not drawn)	i	i	-0.5%	4.2%	6.8e-09

(listing goes on)
SMILES	Resorufin autofl	A488 autofl	AID923	TSHR agonist	A647 autofl
N#CC1=C(N)N2C(=C(C#N)C13CCCCC3)SC1CCCCC12O (stereo not drawn)	i	i	0.6%	?	3.65e-08
O=C(N/N=C/c1ccc(O)cc1O)c1cc(-c2ccccc2)n[nH]1	.	.	2.7%	2.8%	.
COc1ccc(N(C(=O)CNC(=O)c2ccco2)C(C(=O)NC2CCCCC2)c2ccco2)cc1 (stereo not drawn)	i	i	1.2%	?	1e-09
Cc1ccc(NCc2nnc3n2CCCCC3)cc1	i	i	-1.2%	4.7%	6e-09
Clc1cccc(N2CCN(CCNc3nc4ccccc4n4cnnc34)CC2)c1	i	i	1.8%	14.0%[11.4 µM]	5.7e-09
C=CCNS(=O)(=O)c1ncnc2nc[nH]c12	i	i	-1.4%[11.5 µM]	1.8%[11.4 µM]	3.2e-09
O=C(COc1ccc(S(=O)(=O)NCc2ccccc2)cc1)NCC1CCCO1 (stereo not drawn)	i	i	-0.7%	-3.7%	4.36e-08
CCOC(=O)C1CCN(C(=O)CNS(=O)(=O)c2cccs2)CC1	i	i	1.4%	16.3%[11.4 µM]	3.8e-09
O=C(COC(=O)c1cnccn1)c1ccc2c(c1)CCCC2	i	i	0.9%	4.6%	1e-09
CCN(CC)CCCN1C(=O)C(O)=C(C(C)=O)C1c1ccc(OC)cc1OC (stereo not drawn)	.	.	-0.8%	0.8%	.
CC(=O)NC(NC(C)=O)c1ccc(Br)cc1	i	i	-0.9%	-3.8%[11.4 µM]	3.21e-08
CCn1c(SCC(=O)Nc2cccc(OC)c2)nnc1-c1ccc(Cl)cc1	i	i	0.0%	?	1.27e-08
N=C(N)SCc1cc(Cl)cc(Cl)c1O	i	i	-1.2%[11.5 µM]	2.0%[11.4 µM]	1e-09
COC(=O)c1ccc2c(=O)n(CCC3=CCCCC3)c(SCC(=O)N3CCCC3)nc2c1	i	i	1.2%	?	9.5e-09
c1ccc(-c2nnc(SCc3nc4ccccc4[nH]3)n2Cc2ccco2)nc1	i	i	0.7%	?	1e-09
CCOC(=O)c1sc(NC(=O)CSc2ccccn2)c(C#N)c1C	i	i	-0.7%	15.3%	1e-09
O=C(Cc1coc(-c2ccc(F)cc2)n1)Nc1ccccc1	.	.	0.6%	2.6%	.
O=C(Cc1ccc(Cl)cc1)Nc1ccc(N2CCN(C(=O)c3ccco3)CC2)c(Cl)c1	i	i	-1.0%	1.4%	1e-09
COc1ccc(N2CC(C(=O)NCc3cccnc3)CC2=O)cc1 (stereo not drawn)	i	i	1.1%	1.8%	1.4e-08
COCCNc1ncnc2ccc(-c3ccccc3C)cc12	i	i	0.9%	?	3.27e-08
Cc1cc(C)n(-c2nc(SCC(=O)N3CCCC3)c3c4c(sc3n2)CCCC4)n1	i	i	-0.7%	16.5%	4.9e-09
Clc1cccc(C=NC=Nc2cccc(Cl)c2)c1	.	.	-0.3%	-1.7%	.
COc1ccc(CCNC(=O)CCCn2c(=O)[nH]c3cc(OC)c(OC)cc3c2=O)cc1OC	i	i	0.9%	-4.3%[11.4 µM]	1.2e-09
O=C(Cc1ccc(-n2cccc2)cc1)NCc1cccs1	i	i	-0.9%	-2.0%	1.4e-08
O=C1CCc2cc(S(=O)(=O)N3CCC(C(=O)NCc4ccccc4Cl)CC3)ccc2N1	.	.	-1.3%	-10.6%	.

Next structures.
SMILES	Resorufin autofl	A488 autofl	AID923	TSHR agonist	A647 autofl
O=C(NC1CCCCCCC1)c1ccc2c(c1)N(Cc1ccc(F)cc1)C(=O)CS2=O (stereo not drawn)	i	i	-1.5%	.	2e-09
CCc1ccc(S(=O)(=O)NCc2csc(-c3ccccc3)n2)s1	i	i	0.3%	?	1e-09
CC(=O)c1n[nH]nc1NC(=O)c1ccccc1	i	i	3.6%	3.9%	1e-09
COc1cccc(C(O)c2cnc(C(C)C)n2C)c1OC (stereo not drawn)	i	i	-0.4%	3.7%	4.9e-09
O=c1c2ccccc2nc(-c2ccccc2)n1CCCn1ccnc1	i	i	-2.5%	17.2%	1.91e-08
CCC(C)COC(=O)C(C#N)c1nc2ccccc2nc1N1CCCCC1 (stereo not drawn)	i	i	6.6%	.	1e-09
C=CCc1c(C)c(C#N)c2nc3ccccc3n2c1N1CCN(C)CC1	i	i	.	.	2.48e-08
C[C@@H]1C[C@H](C)CN(S(=O)(=O)c2cc(Cl)c(Oc3ccc([N+](=O)[O-])cc3Cl)c(Cl)c2)C1	i	i	-0.9%[11.5 µM]	2.4%[11.4 µM]	1e-09
O=C(O)Cc1ccc(O)c(O)c1	i	i	-1.2%	?	8.8e-09
CC(C)(C)NC(=O)CN(C(=O)CS(=O)CC(=O)Nc1ccc(F)cc1)c1ccccc1 (stereo not drawn)	i	i	-1.2%	-10.4%	6.9e-09
OC(CNCCc1ccccc1)c1ccccc1 (stereo not drawn)	.	.	-1.7%	15.8%[11.4 µM]	.
O=C(c1ccc(Cn2cc(Br)cn2)o1)n1cccn1	i	i	-1.0%	6.7%	5.69e-08
CCOC(=O)c1sc(NCCNc2nc(C)c(C(=O)OCC)s2)nc1C	.	.	2.2%	6.7%	.
COC(=O)c1ccc(C(NC(=O)OCc2ccccc2)/C(C)=C/[C@@H](C)C(=O)N[C@@H](CO)Cc2ccccc2)cc1 (stereo partly drawn)	.	.	3.7%	?	.
Cc1ccc2cc(C#N)c(N3CCCC3)nc2c1C	i	i	20.2%	6.1%	3.66e-08
CCOc1ccccc1C(=O)n1nc2nc(C)cc(C)c2c1N	i	i	0.9%	1.4%	1e-09
Cc1sc2nc(CN3CCOCC3)nc(Oc3ccc(NC(=O)c4ccco4)cc3)c2c1C	i	i	-2.0%	27.1%	6e-09
CCCn1nnc(NC(=O)c2ccc(-c3ccccc3)cc2)n1	i	i	0.3%	1.7%	3.41e-08
CCOC(=O)c1ccc(CSc2nnc(N)s2)cc1	i	i	-0.6%	.	1e-09
CCC1CCCCN1CCCNC(=O)Cn1nc(-c2ccccc2)ccc1=O (stereo not drawn)	i	i	-1.6%	1.3%[11.4 µM]	1.66e-08
Cc1ccc2c(CC(=O)OCc3csc(C)n3)coc2c1	i	i	-2.3%	?	1.03e-08
Cc1cc(NCCCn2ccnc2)n2nc(-c3ccc(F)cc3)cc2n1	i	i	1.2%	4.0%	8.6e-09
CCNc1nc(-c2ccc(Cl)cc2)cs1	i	i	1.1%	-6.3%	7.4e-09
O=C(CSc1nnc(COc2ccc(Cl)cc2)o1)OC1CCCCC1	i	i	0.9%	3.7%	3.66e-08
CN1C[C@@H](C(=O)N[C@]2(C)O[C@]3(O)[C@H]4CCCN4C(=O)[C@H](Cc4ccccc4)N3C2=O)C[C@H]2c3cccc4[nH]cc(c34)C[C@@H]21	i	i	-0.9%	-9.6%	1.3e-09

Whole records from above. Values in the order: Resorufin autofl | A488 autofl | AID923 | TSHR agonist | A647 autofl
CCOc1ccccc1C(=O)n1nc2nc(C)cc(C)c2c1N is entered as i | i | 0.9% | 1.4% | 1e-09
Cc1sc2nc(CN3CCOCC3)nc(Oc3ccc(NC(=O)c4ccco4)cc3)c2c1C is entered as i | i | -2.0% | 27.1% | 6e-09

The listing continues:
SMILES	Resorufin autofl	A488 autofl	AID923	TSHR agonist	A647 autofl
O=C1CC(c2ccco2)Sc2nc3ccccc3n21 (stereo not drawn)	.	.	0.4%	8.0%	.
CCc1cccc(C)c1NC(=O)c1cccc(N(C)C)c1	.	.	0.3%	25.4%	.
CCOC(=O)N1CCC(NC(=O)C(Cc2ccccc2)NC(=O)C2CCCCC2)CC1 (stereo not drawn)	i	i	2.0%	4.6%	2.27e-08
CCc1n[nH]c2c1/C(=N/O)CCC2	i	i	-0.4%	3.5%	6.7e-09
CCCCn1cnc2c(cnn2-c2ccc(F)cc2)c1=O	i	i	-0.2%	8.3%	1.4e-09
CCOc1ccc(-n2c(SCc3ccc(C#N)cc3)nnc2-c2cccnc2)cc1	i	i	.	.	3.42e-08
Oc1ccc([C@@H]2CNCc3sccc32)cc1O	i	i	-1.6%	?	3.7e-08
CCCCNC(=O)Cn1c(=O)n(C)c2ccccc21	.	.	2.2%	-2.4%	.
CNC(=O)CN(c1cc(C)ccc1OC)S(=O)(=O)c1ccc(C)cc1	.	.	-2.7%	-0.5%	.
CCSc1nnc(Cn2c(=O)sc3ccccc32)n1C	.	.	2.3%	-4.6%	.

Only A488 autofl, TSHR agonist and AID923, for some of the entries so far:
compound,A488 autofl,TSHR agonist,AID923
CCc1n[nH]c2c1/C(=N/O)CCC2,i,3.5%,-0.4%
CCCCn1cnc2c(cnn2-c2ccc(F)cc2)c1=O,i,8.3%,-0.2%
CCOc1ccc(-n2c(SCc3ccc(C#N)cc3)nnc2-c2cccnc2)cc1,i,.,.
